# Source: PubChem
# AID504770: E. coli YBA685 growth inhibition, screen for V. cholerae RctB inhibitors | actives 0.27% (n = 130,000) | E. coli YBA685 rctB-dependent plasmid, OD600 growth, 3 h; stronger effect = lower value | z-score (no concentration beside the values);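 active = z-score under -2 on both plates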;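 also: wells of about 30 µL received 100 nL stock; score is relative to mean and SD of the test wells; the first replicate is given; strong numbers were not always called active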
# CapD inh: CapD enzyme inhibition | AID 492967 | z-score (concentration not given with the values) | actives 0.23% (n = 140,000) | purified CapD enzyme, fluorescence intensity read-out; stronger effect = lower value; some hits fall short of the stated cut;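 active = z-score under -4 in either of two replicates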;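 also: stock transfer was 100 nL into about 40 µL; score is relative to mean and spread of the plate; one replicate is shown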
# An asterisk follows results filed as active; nt = no result given.
SMILES,AID504770,CapD inh
O=C(Nc1ccccc1)C(F)C(F)(F)F (centres undefined),-0.95,0.055
CCC(c1nc2ccccc2n1C)C(O)c1ccccc1 (centres undefined),-0.1,0.065
CN(C1CCCCC1)S(=O)(=O)c1ccc(-c2ccc(=O)[nH]n2)o1,-0.1,6.62
COc1cc(OC)nc(-c2ccc(C(=O)N3CCc4ccccc4C3)cc2)n1,nt,-1.02
CC(=O)N1CCCc2ccc(NC(=O)Oc3ccccc3)cc21,-0.85,nt
CC(=O)Nc1nnc(-c2cccs2)o1,-0.65,1.94
Cc1cc2c(cc3c(SCC(=O)Nc4ccccc4F)nncn32)o1,-0.6,0.465
O=C(NCCNc1ccc(C(F)(F)F)cc1[N+](=O)[O-])c1cccnc1Oc1ccccc1,nt,-0.22
O=C(CC12CC3CC(CC(C3)C1)C2)Nc1c(O)c2ccccc2oc1=O,1.8,0.315
Cc1ccc(C(C)N)cc1C (centres undefined),-0.9,nt
COc1ccc(-c2c(C(F)(F)F)nn(C)c2NC(=O)NC(C)(C)C)cc1,0.5,0.9
Nc1nnc(-c2ccc(Cn3c(-c4cncs4)nc4ccccc43)cc2)s1,-0.2,13.7
CCN1CCN(C(=O)N2c3ccccc3Sc3ccccc32)CC1,-0.7,-0.565
CCOc1ncccc1C(=O)OCC(=O)c1ccccc1,-1.15,nt
Cc1cccc(C)c1NC(=O)C1(N(C=O)CCc2c(C)[nH]c3ccccc23)CCCCC1,nt,-0.08
CSc1nn(-c2ccccc2)cc1-c1noc(-c2ccc(Cl)cc2)n1,0.85,0.025
CCn1c(=O)cc(SCC(=O)NC2CCCC2)c2ccccc21,0.45,0.17
Cn1nc(C(F)(F)F)c(C#N)c1NCc1ccccc1,-1.95,-0.475
CC(C)(C)C(=O)Nc1cccc(C(=O)N/N=C/c2c[nH]c3ccccc23)c1,nt,-0.58
Cc1c(C(=O)/C=C/N(C)C)nnn1-c1cc(Cl)ccc1Cl,-0.5,-2.87
CC1(C)CC2=NN(c3ccccc3)P(=S)(NCc3ccco3)C2=C(N2CCCCC2)C1 (centres undefined),-0.15,nt
Cc1ccc(Sc2ncccc2NS(=O)(=O)c2ccc(F)cc2)cc1,0.4,0.535
O=C(O)CN1C(=O)/C(=C\c2cc(Br)cc(Cl)c2O)SC1=S,nt,-3.07
CCOC(=O)c1cccc(-n2sc(=O)n(C3Cc4ccccc4C3)c2=O)c1,-1.3,1.02
CC(=O)Oc1cccc(/C=c2/sc3nc4ccccc4n3c2=O)c1,1.45,0.175
CN(c1ccccc1)S(=O)(=O)c1cccc(C(=O)NC2CCCC2)c1,0.7,0.505
O=c1c2c3c(sc2ncn1-c1ccccc1)CCCC3,-1.55,-0.8
C=Cn1cccc1-c1cccs1,-0.75,0.735
CC1(C)CC(C)(c2ccc(O)cc2O)NC(=S)N1 (centres undefined),nt,-0.215
CC12CCC(=O)N1C(C(=O)OCC(=O)N1CCN(S(=O)(=O)c3ccc4ccccc4c3)CC1)CS2 (centres undefined),0.45,nt
Cc1ccc2nc(=O)c(NNc3ccccc3)cnc2c1,-0.65,nt
CCc1ccc(CNC(=O)c2cc3c(C)nc4ccccc4c3o2)cc1,0.15,2.44
O=S(=O)(c1ccc(S(=O)(=O)N2CCCC2c2ccc3c(c2)OCCCO3)cc1)N1CCCC1 (centres undefined),-0.5,nt
COc1ccc(CC(=O)Nc2ccc(-n3cnnn3)cc2)cc1OC,1.85,nt
CN1/C(=C\C(=O)CN2CCN(c3ccc(F)cc3)CC2)C(C)(C)c2ccccc21,0.85,nt
COc1ccc(C2NC(=O)C(=O)/C2=C(/O)c2ccccc2)c(OC)c1 (centres undefined),nt,6.1
Cc1cccc(-c2nnn3c2nc(N2CCN(C(=O)c4ccco4)CC2)c2cc(Cl)ccc23)c1,0.05,0.07
CCCC(=O)NCCc1cc2ccc(OC)cc2[nH]c1=O,0.4,0.95
CCOc1ccc2ccccc2c1/C=C1\C(=O)NC(=S)N(c2cccc(Cl)c2Cl)C1=O,1.55,-1.77
COc1nc(Nc2ccccc2)nc(OC)n1,nt,-0.485

# In the list so far, two have a tert-butyl group.
SMILES,AID504770,CapD inh
COc1ccc(-c2c(C(F)(F)F)nn(C)c2NC(=O)NC(C)(C)C)cc1,0.5,0.9
CC(C)(C)C(=O)Nc1cccc(C(=O)N/N=C/c2c[nH]c3ccccc23)c1,nt,-0.58

# (list continues)
SMILES,AID504770,CapD inh
CCOC(=O)c1nn(-c2ccc(OC)cc2)c(=O)c(C#N)c1C,-0.75,-1.22
CC(NC(=O)CN1CCc2sccc2C1c1cccs1)c1ccc2c(c1)OCCO2 (centres undefined),0.05,nt
C=CCn1c(O)c(N=N)c2ccccc21,-1,-1.39
COc1cccc(-n2c(=O)c3ccccc3n3c(SCCN(C)C)nnc23)c1,-0.9,nt
CCOc1ccc(N(CC(=O)Nc2ccc(OC)c(OC)c2)S(=O)(=O)c2ccc(Cl)cc2)cc1,nt,-0.785
CC1=CC(C)C2(COC(c3cccnc3)OC2)C(C)C1 (centres undefined),-0.4,-0.41
COC(=O)c1ccc2c(c1)N(Cc1nc(-c3cccc(C)c3)oc1C)C(=O)C1CCCN21 (centres undefined),-0.2,2.85
O=C(NC(Cc1c[nH]c2ccccc12)C(=O)O)C(NC(=O)c1ccccc1)=C1CCCCC1 (centres undefined),nt,1.26
O=C(O)CC1(CC(=O)NCc2ccoc2)CCCCC1,0.25,0.14
O=C(NCCn1cc(SCC(=O)N2CCOCC2)c2ccccc21)c1cccs1,-0.25,nt
Cc1ccc(C)c(N2C(=O)/C(=C/c3ccc([N+](=O)[O-])cc3)C=C2c2ccccc2)c1,nt,0.365
COc1ccc(-c2nn(C)c3sc(C(=O)NCC4(c5ccccc5)CCCC4)cc23)cc1OC,-0.45,1.23
CC1C/C(=N/NC(=O)Cc2cn3ccsc3n2)CC(C)(C)C1 (centres undefined),0.2,nt
CCOC(=O)c1cnc2cc(C(F)(F)F)ccc2c1N1CC(C)CC(C)C1 (centres undefined),-0.45,-1.73
COc1cc(/C=C/C(=O)OCC(=O)Nc2c(C)n(C)n(-c3ccccc3)c2=O)ccc1OCC#N,-0.4,nt
CCCCN(C)C(=O)c1ccc(Cl)c(NC2=NC3CS(=O)(=O)CC3S2)c1 (centres undefined),-0.6,-1.29
COCCn1c(C)cc(C(=O)CSc2ccc(Cl)cc2)c1C,0.35,-0.28
CCC(CCC(=O)Nc1nccs1)C(=O)O (centres undefined),-1.05,0.135
CCCCCC1CCC(c2ccc(N=Cc3ccc4c(c3)OCO4)cc2)CC1 (centres undefined),nt,-0.585
O=c1cc(CSc2nc(NCc3ccc(Cl)cc3)c3ccccc3n2)nc2ccccn12,nt,0.875

# One compound at a time, as listed above. Values in the order: AID504770 | CapD inh
# Cc1ccc2nc(=O)c(NNc3ccccc3)cnc2c1 reads -0.65 | nt
# Cc1ccc(C(C)N)cc1C (centres undefined) reads -0.9 | nt
# CC1(C)CC2=NN(c3ccccc3)P(=S)(NCc3ccco3)C2=C(N2CCCCC2)C1 (centres undefined) reads -0.15 | nt
# O=C(O)CN1C(=O)/C(=C\c2cc(Br)cc(Cl)c2O)SC1=S reads nt | -3.07
# CSc1nn(-c2ccccc2)cc1-c1noc(-c2ccc(Cl)cc2)n1 reads 0.85 | 0.025

# The results go on.
SMILES,AID504770,CapD inh
COc1ccc2occ(C(=O)c3coc4ccc(O)c(CN(C)C)c34)c2c1,-0.6,nt
C=CCN1C(=O)C2(c3ccccc31)c1c(oc3ccccc3c1=O)C(=O)N2CCCO (centres undefined),1.6,-3.29
S=c1nc(-c2ccccc2)c(-c2ccccc2)n[nH]1,nt,-1.31
COc1ccc(NC=O)c(CS(=O)(=O)c2ccc(C)cc2)n1,-0.3,0.44
Cc1ccc(C2OC3(C(=O)c4ccccc4C3=O)C3C(=O)N(Cc4ccc(Cl)cc4)C(=O)C23)cc1 (centres undefined),nt,0.79
O=C1CCc2cc(S(=O)(=O)N3CCCC3C(=O)NC3CCCCC3)ccc2N1 (centres undefined),0.2,0.455
CCOC(=O)N1CCN(C(=O)C(CC(C)C)NS(=O)(=O)c2ccc3c(c2)oc(=O)n3C)CC1 (centres undefined),0,0.215
COc1ccc(/C=C(/NC(=O)c2cccc(C)c2)C(=O)NCCc2c[nH]c3ccccc23)cc1,nt,-0.44
N#CC1=C(N)N(c2cccc(C(F)(F)F)c2)C(=O)C1,0.3,7.4
O=C1C2C3C=CC(O3)C2C(=O)N1OCc1ccc(OC(F)(F)F)cc1 (centres undefined),-0.4,0.075
CCCN(CCC)c1cc(Cl)nc(SC)n1,-0.1,-0.26
CCNC(=O)C1CC(=O)OC12CCCCC2 (centres undefined),-0.2,0.26
COc1ccc(-c2cc(C(=O)NCCCn3ccnc3)c3ccccc3n2)cc1,0.75,72.5
O=C1CC2CCCC(CN1)N2CC(=O)N1CCCCCC1 (centres undefined),-0.9,nt
CCC(CC)NC(=O)c1ccc2c(c1)OCCO2,1.6,nt
O=C(Nc1ccc(Br)cc1F)c1ccc2c(c1)N(Cc1ccccc1)C(=O)CS2=O (centres undefined),-0.95,0.165
COc1ccccc1N1CCN(C(C)C(=O)N(C)Cc2ccccc2)CC1 (centres undefined),2.1,nt
O=C(NN=C1CSc2sc(=O)sc2SC1)C(=O)NNc1ccccc1,nt,-0.28
O=C1CCCCC1Sc1nc2ccccc2[nH]1 (centres undefined),0.5,0.02
COc1ccc(C2(CNC(=O)C(c3ccccc3)c3ccccc3)CCOCC2)cc1OC,nt,-0.22

# Individual results from the entries so far:
# Under CapD inh, COc1ccc(/C=C(/NC(=O)c2cccc(C)c2)C(=O)NCCc2c[nH]c3ccccc23)cc1 is listed with -0.44
# Under AID504770, CN(C1CCCCC1)S(=O)(=O)c1ccc(-c2ccc(=O)[nH]n2)o1 is listed with -0.1
# Under CapD inh, COc1cc(OC)nc(-c2ccc(C(=O)N3CCc4ccccc4C3)cc2)n1 is listed with -1.02
# Under CapD inh, O=C1CCc2cc(S(=O)(=O)N3CCCC3C(=O)NC3CCCCC3)ccc2N1 (centres undefined) is listed with 0.455

# (list continues)
SMILES,AID504770,CapD inh
COc1cc(Br)cc(/C=N/O)c1O,-0.4,0.12
O=CC12c3ccccc3C(c3ccccc31)C1C(=O)N(c3ccccc3Cl)C(=O)C12 (centres undefined),nt,0.56
CCCn1c(-c2ccc(OC)c(OC)c2)nc2ccccc21,-0.05,15.4
O=C(CSc1n[nH]c(=O)n1Cc1ccco1)Nc1ccccc1,-0.2,0.395
O=C(NC1C2CC3CC(C2)CC1C3)c1cc(F)c(F)cc1Cl (centres undefined),-0.3,0.395
COCCN1C(=O)/C(=C/c2cc(C)n(-c3ccncc3)c2C)C(=O)N(c2ccccc2)C1=O,2.85,-1.5
OC1(c2ccc(F)cc2)CN(c2ccc(Cl)cc2)C2=[N+]1CCCS2 (centres undefined),nt,0.045
O=C(CSc1nnc(NC(=O)C2CC(=O)N(c3ccc(F)cc3)C2)s1)NCC1CCCO1 (centres undefined),-0.05,nt
NS(=O)(=O)c1ccc(CCN(Cc2nc3ccsc3c(=O)[nH]2)Cc2nc3ccsc3c(=O)[nH]2)cc1,0.25,nt
Cc1ccccc1N1C(=O)C(Oc2ccc(Cl)cc2)C1CNC(C)(C)C (centres undefined),0.85,15.1
COc1ccc(Br)cc1/C=C1\CC(C(C)(C)C)C/C(=C\c2cc(Br)ccc2OC)C1=O (centres undefined),nt,0.06
O=C(CSc1nnc(NC(=O)c2cccs2)s1)Nc1cc(C(F)(F)F)ccc1Cl,nt,-0.07
NCc1ccncc1,0.2,nt
N#C/C(=N\O)S(=O)(=O)c1ccccc1,nt,-0.66
O=C(NNc1ncnc2c1cnn2-c1ccc(Cl)cc1)c1cccs1,0.1,0
O=c1[nH]c2ccccc2c(=O)n1CCNc1cccc(Cl)c1,1.25,0.975
CC(C)CC(c1ccccc1)C(O)c1ccccc1 (centres undefined),-0.8,-0.03
O=C1CCC(C(=O)OCC(=O)c2ccccc2)N1 (centres undefined),1.35,-0.8
O=C(c1ccc(-c2ccccc2)cc1)N1CCCC1,-0.7,0.135
Cc1ccc(COc2coc(CN3CCN(Cc4ccccc4)CC3)cc2=O)cc1,0.5,nt
O=P1(O)C=C(c2ccccc2)OC(c2ccccc2)=C1,-0.25,nt
CCOc1ccc(N2C(=O)/C(=C\c3cc(OC)ccc3OC)S(=O)(=O)C2c2cccc([N+](=O)[O-])c2)cc1 (centres undefined),nt,-0.505
CC1(C)CC(=O)c2ccc(OCC(=O)O)cc2O1,nt,18.6
N#Cc1c(S/C=C(\O)c2ccccc2)nc2c(c1C(F)(F)F)CCCC2,-0.95,-0.585
CN(C)c1ccc(NC(=O)/C=C\C(=O)N2CCOCC2)cc1,1.85,nt
CN(C)CC(C)(C)CNCc1ccc(-n2cnc3ccccc32)cc1,0.95,nt
c1ccc(-c2csc(N3CCNCC3)n2)cc1,-1.1,-0.005
CC(=O)N/N=C(\C)CCc1ccccc1,-0.6,nt
Cc1ccc2nc(-c3ccc(Cl)c(NC(=O)c4ccc5c(c4)OCCO5)c3)oc2c1,0.3,nt
COc1ccc(CCNC(=O)CSc2ncnc3ccccc23)cc1OC,0.8,-0.445
COc1ccccc1CNC(=O)c1ccc2c(c1)n(C)c(=O)c(=O)n2C,0.8,1.43
Cc1cnc2c(c1)C(=Nc1ccccc1)c1cccc(C)c1-2,nt,0.065
CCOC(=O)c1sc(=NC(=O)c2ccc(OCC)cc2)n(C)c1C,-0.7,-1.41
CC1(C)OC2C(CSC#N)OC(n3cnc4c(=O)[nH]cnc43)C2O1 (centres undefined),nt,-0.4
COc1ccc(C2C(C#N)=C(N)OC(C3CC3)=C2C#N)cc1 (centres undefined),-0.85,3.25
COCCn1c(SCc2cc(=O)n3ccsc3n2)nnc1-c1ccncc1,-1.3,nt

# Only part of the results is shown; the hit share may differ from the screen's.
